# A1 apoptosis 2 = A1 inhibitors via caspase activation, primary screen, cell-based, luminescence, HTS, two replicates | AID 2465, 2010 | 24,000 tested, under 10 active | MEF A1-2A-BIM cells, caspase-Glo luminescence, 3 h; percent of clofoctol response, DMSO zero | caspase activation, % (test concentration not listed); in the data active means caspase activation above about 5.9%;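 further: wells of about 30 µL received 50 nL stock; the first replicate is given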
#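 Material: A1-2A-BIM-expressing MEF cells. Buffer or medium: RPMI-1640 plus 10% FBS. Incubation: cells settled overnight, compound exposure 3 h at 37 °C, 5% CO2. Signal: Caspase-Glo 3/7 luminescence, 1 h at room temperature.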
# * hit, by the source's call. This is a subset; rates above refer to the full screens.
# Start of the listing, in advance, 2 compounds:
SMILES,A1 apoptosis 2
Cc1ccc(S(=O)(=O)Nc2cccc3c2O[C@H](CN(C)C(=O)Nc2ccc(C(F)(F)F)cc2)[C@@H](C)CN([C@H](C)CO)C3=O)cc1,0.0
C[C@@H]1CN([C@H](C)CO)C(=O)c2cc(NS(=O)(=O)c3ccccc3)ccc2O[C@@H](C)CCCCO[C@@H]1CN(C)C(=O)C1CCCCC1,0.6

# Main list, repeating the preview:
SMILES,A1 apoptosis 2
Cc1ccc(S(=O)(=O)Nc2cccc3c2O[C@H](CN(C)C(=O)Nc2ccc(C(F)(F)F)cc2)[C@@H](C)CN([C@H](C)CO)C3=O)cc1,0.0
C[C@@H]1CN([C@H](C)CO)C(=O)c2cc(NS(=O)(=O)c3ccccc3)ccc2O[C@@H](C)CCCCO[C@@H]1CN(C)C(=O)C1CCCCC1,0.6
O=C(N/N=C/c1cccc(Br)c1)c1ccccn1,-2.8
Cc1ccc(S(=O)(=O)N(C)C[C@H]2OCc3cn(nn3)CCCC(=O)N([C@H](C)CO)C[C@@H]2C)cc1,-0.4
C[C@H](CO)N1C[C@H](C)[C@H](CN(C)C(=O)NC2CCCCC2)Oc2ccc(NC(=O)c3ccncc3)cc2C1=O,-0.1
C[C@@H]1CCCCO[C@@H](CN(C)S(=O)(=O)c2ccc(F)cc2)[C@@H](C)CN([C@@H](C)CO)C(=O)c2cc(NC(=O)c3ccncc3)ccc2O1,-0.8
C[C@@H]1CN([C@H](C)CO)C(=O)c2cccc(NC(=O)Nc3cccc4ccccc34)c2O[C@H]1CN(C)S(=O)(=O)c1ccc(Cl)cc1,-0.4
C[C@H]1CN([C@@H](C)CO)C(=O)c2cc(NC(=O)Nc3ccc(F)cc3)ccc2O[C@@H]1CN(C)S(=O)(=O)c1cn(C)cn1,-1.3
C[C@@H]1CN([C@H](C)CO)C(=O)Cc2cc(NS(=O)(=O)c3ccccc3)ccc2O[C@H]1CN(C)Cc1ccc2c(c1)OCO2,0.4
C[C@H](CO)N1C[C@H](C)[C@H](CN(C)S(=O)(=O)c2cn(C)cn2)OCCCC[C@H](C)Oc2ccc(N(C)C)cc2C1=O,-0.5
C[C@H](CO)N1C[C@H](C)[C@@H](CN(C)C(=O)Nc2ccc(F)cc2)Oc2ccc(NS(=O)(=O)c3cccs3)cc2C1=O,-1.0
C[C@H]1CN([C@@H](C)CO)C(=O)CCCn2cc(nn2)CO[C@H]1CN(C)C(=O)OCc1ccccc1,2.3
Cc1noc(C)c1S(=O)(=O)N(C)C[C@@H]1OCCCC[C@H](C)Oc2ccc(NC(=O)C3CCCCC3)cc2C(=O)N([C@@H](C)CO)C[C@@H]1C,0.3
C[C@@H]1CCCCO[C@@H](CN(C)C(=O)C2CCCCC2)[C@@H](C)CN([C@@H](C)CO)C(=O)c2cc(NC(=O)Cc3ccccc3)ccc2O1,-1.6
C[C@H](CO)N1C[C@H](C)[C@@H](CN(C)Cc2ccc(C(F)(F)F)cc2)Oc2c(NC(=O)CCCCCC(=O)Nc3ccccc3N)cccc2C1=O,-0.2
C[C@@H]1CCCCO[C@H](CN(C)CC2CCCCC2)[C@H](C)CN([C@H](C)CO)C(=O)c2cc(NS(=O)(=O)c3cccs3)ccc2O1,-0.8
C[C@H]1CCCCO[C@H](CN(C)C(=O)Nc2ccccc2)[C@@H](C)CN([C@@H](C)CO)C(=O)c2cc(NC(=O)Cc3ccccc3)ccc2O1,0.7
C[C@H](CO)N1C[C@H](C)[C@H](CN(C)Cc2ccc(C(=O)O)cc2)Oc2c(NC(=O)Nc3ccc(F)cc3)cccc2C1=O,-0.3
C[C@@H]1CN([C@H](C)CO)C(=O)Cc2cc(NC(=O)C3CCCCC3)ccc2O[C@H]1CN(C)Cc1ccc(C(=O)Nc2ccccc2N)cc1,0.9
COc1ccc(CN(C)C[C@@H]2Oc3c(NC(=O)Nc4ccc(OC)cc4)cccc3C(=O)N([C@H](C)CO)C[C@H]2C)cc1,-1.7
COc1ccc(S(=O)(=O)Nc2ccc3c(c2)C(=O)N([C@H](C)CO)C[C@@H](C)[C@H](CN(C)CC2CC2)OCCCC[C@@H](C)O3)cc1,0.2
COC(=O)N(C)C[C@@H]1OCc2cnnn2CCCC(=O)N([C@H](C)CO)C[C@@H]1C,1.2
O=C(N/N=C/c1ccc(O)cc1O)c1ccccn1,-9.7
Cc1noc(C)c1NC(=O)N(C)C[C@H]1Oc2ccc(NC(=O)NC(C)C)cc2CC(=O)N([C@@H](C)CO)C[C@@H]1C,-0.5
C[C@@H]1CN([C@H](C)CO)C(=O)Cc2cc(NC(=O)CCCCCC(=O)Nc3ccccc3N)ccc2O[C@@H]1CN(C)C(=O)Nc1cccc2ccccc12,0.5
C[C@H](CO)N1C[C@H](C)[C@@H](CN(C)S(=O)(=O)c2ccccc2)Oc2ccc(NC(=O)Cc3cn(C)c4ccccc34)cc2C1=O,-0.8
C[C@H]1CN([C@@H](C)CO)C(=O)CCCn2cc(nn2)CO[C@@H]1CN(C)C(=O)C1CC1,0.1
C[C@@H]1CCCCO[C@@H](CN(C)C(=O)CCC(F)(F)F)[C@@H](C)CN([C@H](C)CO)C(=O)c2cc(NC(=O)C3CCCCC3)ccc2O1,1.0
C[C@H](CO)N1C[C@H](C)[C@H](CN(C)C(=O)CCCN(C)C)OCCCC[C@H](C)Oc2ccc(NS(=O)(=O)c3cn(C)cn3)cc2C1=O,0.7
C[C@H]1CCCCO[C@H](CN(C)C(=O)NC2CCCCC2)[C@@H](C)CN([C@@H](C)CO)C(=O)c2cc(NS(C)(=O)=O)ccc2O1,0.1
COc1ccc(NC(=O)N(C)C[C@H]2Oc3ccc(NC(=O)Cc4cn(C)c5ccccc45)cc3CC(=O)N([C@H](C)CO)C[C@@H]2C)cc1,-1.9
C[C@@H]1CN([C@@H](C)CO)C(=O)c2cccc(NS(C)(=O)=O)c2O[C@@H]1CN(C)S(C)(=O)=O,1.1
CNC[C@H]1Oc2ccc(NS(=O)(=O)c3cccs3)cc2CC(=O)N([C@H](C)CO)C[C@H]1C,-0.1
C[C@@H]1CN([C@@H](C)CO)C(=O)c2cc(NC(=O)Cc3ccccc3)ccc2O[C@@H](C)CCCCO[C@H]1CN(C)C(=O)Nc1ccccc1,-0.8
CO[C@H]1O[C@H](CO)[C@@H](OC(=O)Nc2cccc(F)c2)[C@H](OC(=O)Nc2ccc3c(c2)OCO3)[C@H]1OC(=O)Nc1ccc2c(c1)OCO2,1.1
C[C@@H]1CN([C@H](C)CO)C(=O)c2cc(NC(=O)Nc3cccc4ccccc34)ccc2O[C@H]1CN(C)S(=O)(=O)c1ccc(F)cc1,-1.3
C[C@H](CO)N1C[C@H](C)[C@@H](CN(C)CC2CC2)Oc2c(NC(=O)C3CC3)cccc2C1=O,-0.9
C[C@H](CO)N1C[C@H](C)[C@@H](CN(C)C(=O)NC2CCCCC2)Oc2c(NC(=O)Nc3ccc(C(F)(F)F)cc3)cccc2C1=O,-1.0
C[C@H]1CN([C@@H](C)CO)C(=O)c2cccc(NS(=O)(=O)c3ccc(F)cc3)c2O[C@H]1CN(C)Cc1ccc2c(c1)OCO2,-0.1
COc1ccc(S(=O)(=O)N(C)C[C@@H]2Oc3ccc(NS(=O)(=O)c4ccccc4)cc3CC(=O)N([C@H](C)CO)C[C@H]2C)cc1,1.0
C[C@@H]1CN([C@@H](C)CO)C(=O)c2cccc(NS(=O)(=O)c3ccc(F)cc3)c2O[C@H]1CN(C)Cc1ccc(-c2ccccc2)cc1,1.2
CNC[C@@H]1Oc2ccc(NC(=O)Nc3ccc(C(F)(F)F)cc3)cc2C(=O)N([C@@H](C)CO)C[C@H]1C,0.8
C[C@H](CO)N1C[C@H](C)[C@@H](CN(C)C(=O)Nc2ccc(C(F)(F)F)cc2)Oc2c(NS(=O)(=O)c3cn(C)cn3)cccc2C1=O,-0.8
C[C@@H]1CCCCO[C@@H](CN(C)C(=O)Nc2ccc(C(F)(F)F)cc2)[C@@H](C)CN([C@H](C)CO)C(=O)c2cc(NS(=O)(=O)c3cccs3)ccc2O1,-0.1
CC(C)NC(=O)N(C)C[C@@H]1OCCCC[C@@H](C)Oc2ccc(NC(=O)CCCN(C)C)cc2C(=O)N([C@H](C)CO)C[C@@H]1C,-0.4
C[C@@H]1CCCCO[C@H](CN(C)C(=O)c2ccncc2)[C@H](C)CN([C@H](C)CO)C(=O)c2cc(NS(=O)(=O)c3cccs3)ccc2O1,0.5
C[C@@H]1CCCCO[C@H](CN(C)C(=O)CCCN(C)C)[C@@H](C)CN([C@@H](C)CO)C(=O)c2cc(NC(=O)Nc3cccc4ccccc34)ccc2O1,-1.4
C[C@@H]1CN([C@H](C)CO)C(=O)c2cccc(NS(=O)(=O)c3ccccc3)c2O[C@@H]1CN(C)S(=O)(=O)c1ccc(Cl)cc1,0.0
C[C@@H]1CCCCO[C@@H](CN(C)C(=O)CCCN(C)C)[C@H](C)CN([C@H](C)CO)C(=O)c2cc(NC(=O)NC3CCCCC3)ccc2O1,-1.0
CC(C)NC(=O)Nc1ccc2c(c1)C(=O)N([C@H](C)CO)C[C@@H](C)[C@H](CN(C)Cc1ccc(C(=O)Nc3ccccc3N)cc1)O2,-0.5
C[C@H]1CN([C@@H](C)CO)C(=O)c2cc(NC(=O)Nc3cccc4ccccc34)ccc2O[C@H]1CN(C)Cc1ccc(C(F)(F)F)cc1,-0.5
C[C@@H]1CN([C@H](C)CO)C(=O)c2cc(NS(=O)(=O)c3ccccc3)ccc2O[C@@H](C)CCCCO[C@@H]1CN(C)Cc1ccc2c(c1)OCO2,0.1
C[C@@H]1CCCCO[C@H](CN(C)C(=O)Cc2ccccc2)[C@H](C)CN([C@H](C)CO)C(=O)c2cc(NC(=O)c3ccncc3)ccc2O1,-0.6
CC(C)NC(=O)Nc1ccc2c(c1)CC(=O)N([C@@H](C)CO)C[C@H](C)[C@@H](CN(C)C(=O)NC1CCCCC1)O2,-0.1
C[C@H](CO)N1C[C@H](C)[C@H](CN(C)S(=O)(=O)c2cccs2)Oc2ccc(NC(=O)Cc3cn(C)c4ccccc34)cc2CC1=O,0.5
Cc1ccc(S(=O)(=O)N(C)C[C@H]2Oc3c(NC(=O)Nc4ccc(C(F)(F)F)cc4)cccc3C(=O)N([C@@H](C)CO)C[C@@H]2C)cc1,0.8
C[C@H](CO)N1C[C@H](C)[C@H](CN(C)S(=O)(=O)c2cn(C)cn2)OCCCC[C@H](C)Oc2ccc(NC(=O)Nc3ccccc3)cc2C1=O,-0.7
Cc1noc(C)c1S(=O)(=O)N(C)C[C@@H]1Oc2ccc(NS(=O)(=O)c3cn(C)cn3)cc2CC(=O)N([C@@H](C)CO)C[C@H]1C,-2.4
C[C@H]1CN([C@@H](C)CO)C(=O)c2cccc(NS(=O)(=O)c3cccs3)c2O[C@@H]1CN(C)Cc1ccncc1,-0.4
C[C@@H]1CCCCO[C@@H](CN(C)Cc2ccc(Cl)c(Cl)c2)[C@H](C)CN([C@H](C)CO)C(=O)c2cc(NC(=O)C3CCCCC3)ccc2O1,-0.2

# 4 entries from above, field by field:
Cc1ccc(S(=O)(=O)N(C)C[C@H]2Oc3c(NC(=O)Nc4ccc(C(F)(F)F)cc4)cccc3C(=O)N([C@@H](C)CO)C[C@@H]2C)cc1
  A1 apoptosis 2 = 0.8
C[C@H](CO)N1C[C@H](C)[C@H](CN(C)S(=O)(=O)c2cn(C)cn2)OCCCC[C@H](C)Oc2ccc(NC(=O)Nc3ccccc3)cc2C1=O
  A1 apoptosis 2 = -0.7
Cc1noc(C)c1S(=O)(=O)N(C)C[C@@H]1Oc2ccc(NS(=O)(=O)c3cn(C)cn3)cc2CC(=O)N([C@@H](C)CO)C[C@H]1C
  A1 apoptosis 2 = -2.4
C[C@H]1CN([C@@H](C)CO)C(=O)c2cccc(NS(=O)(=O)c3cccs3)c2O[C@@H]1CN(C)Cc1ccncc1
  A1 apoptosis 2 = -0.4

# (continued)
SMILES,A1 apoptosis 2
Cc1ccc(S(=O)(=O)Nc2ccc3c(c2)CC(=O)N([C@H](C)CO)C[C@@H](C)[C@H](CN(C)S(=O)(=O)c2cccs2)O3)cc1,-0.7
C[C@@H]1CN([C@@H](C)CO)C(=O)c2cc(NC(=O)Cn3cnnn3)ccc2O[C@@H]1CN(C)Cc1ccc(Oc2ccccc2)cc1,-0.8
COc1ccccc1S(=O)(=O)N(C)C[C@H]1OCc2cn(nn2)CCCC(=O)N([C@H](C)CO)C[C@@H]1C,0.9
COc1ccc(NC(=O)N(C)C[C@@H]2OCCCC[C@H](C)Oc3ccc(NS(=O)(=O)c4c(C)noc4C)cc3C(=O)N([C@H](C)CO)C[C@@H]2C)cc1,0.9
Cc1noc(C)c1NC(=O)Nc1ccc2c(c1)C(=O)N([C@@H](C)CO)C[C@H](C)[C@H](CN(C)Cc1ccncc1)OCCCC[C@H](C)O2,0.3
COc1ccc(NC(=O)Nc2ccc3c(c2)CC(=O)N([C@H](C)CO)C[C@H](C)[C@@H](CN(C)C(=O)NC2CCCCC2)O3)cc1,-1.0
COc1ccc(C(=O)NC(CC(C)C)C(=O)O)cc1 (stereo unspecified),0.2
C[C@H](CO)N1C[C@H](C)[C@@H](CN(C)Cc2ccncc2)Oc2ccc(NS(=O)(=O)c3ccccc3)cc2C1=O,0.8
C[C@@H]1CCCCO[C@@H](CN(C)Cc2ccc(C(=O)O)cc2)[C@@H](C)CN([C@@H](C)CO)C(=O)c2cc(NC(=O)Nc3ccc(F)cc3)ccc2O1,1.8
C[C@H]1CN([C@@H](C)CO)C(=O)c2cccc(NS(=O)(=O)c3cn(C)cn3)c2O[C@@H]1CN(C)Cc1ccccc1,0.0

# High-throughput results: PubChem BioAssay, Broad Institute
